Screening data as filed in PubChem.
Sa helicase inh – blocks Staphylococcus aureus DNA helicase; inhibition, %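 (tested at about 80 µM)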; 0.05% of 120,000 active; AID 485395; purified S. aureus helicase, fluorescence unwinding assay; about half of the hits fall short of the stated cut;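 active means both duplicates at 50% or more, or one of them with a favoured structure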;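 further: 0% = mean of negative control wells and 100% = mean of positive control wells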
MgrA DNA FP – modulators of Staphylococcus aureus MgrA DNA binding | 0.13% of 84,000 active | inhibition, %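 (about 10 µg/mL by stock and volumes)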 | fluorescence polarization;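 active means above 50% in either of two replicates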;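 further: 0% = protein plus DNA without compound and 100% = DNA alone without protein; higher means less MgrA bound to DNA so lower polarization; one replicate is shown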
* = called active by the depositor; i = inactive; . = no result given; & = joins results of further samples. The list is partial (hit frequency here may not be typical).

SMILES	Sa helicase inh	MgrA DNA FP
Cc1ccccc1Oc1ccc(S(=O)(=O)N2CC(C)OC(C)C2)cc1 (stereo not drawn)	11.0	.
Cc1csc(SC(C)C(=O)N2CCCc3ccccc32)n1 (stereo not drawn)	-6.0	.
Cc1noc(C)c1CSc1ncccc1C(=O)NC1CCCc2ccccc21 (stereo not drawn)	15.0	.
c1ccc(-c2nnc(-c3csc(-c4cccnc4)n3)o2)cc1	.	-3.8
Ic1ccc(Nc2nc3nonc3nc2N2CCCCC2)cc1	6.0	5.3
Cc1oc(C(C)(C)C)cc1C(=O)Nc1ccc(C(F)(F)F)c(C#N)c1	-15.0	.
CCn1c(=O)c2ccccc2n(CC(=O)c2ccc(C)cc2)c1=O	15.0	-1.2
COC(=O)c1ccc(OC)c(CN2CCN(Cc3ccc(C)cc3)S2(=O)=O)c1	16.0	.
Cc1cc(C(=O)n2cc(C)c(-c3cccs3)n2)c(C)o1	.	-1.2
CN(Cc1ccccc1)C(=O)C1CCCN1S(=O)(=O)c1ccc(Cl)cc1 (stereo not drawn)	-7.0	-1.6
O=C(N[C@@H]1C[C@H]2CC[C@@H]1C2)c1ccc(CSc2ccccc2)cc1	0.0	-5.2
C=CCN(C(=O)c1sc2nc(CSC)[nH]c(=O)c2c1C)c1nc2c(s1)CCCC2	-24.0	.
Cc1ccccc1Nc1nc(N)nc(Cn2cnc3sc4c(c3c2=O)CCC4)n1	11.0	.
Cc1cccc(C(=O)OC(C)c2nnc(-c3ccccc3)o2)c1O (stereo not drawn)	-1.0	.
CC(Cc1ccccc1)NC(=O)c1cnc[nH]1 (stereo not drawn)	-1.0	-3.9
N#Cc1nnn2c1nc(N)c1c(F)cccc12	-10.0	.
COc1ccccc1-c1noc(CCC(=O)O)n1	9.0	-3.1
CCCCOc1ccc(OCCCN2CCOCC2)cc1	.	-1.1&-0.7
CCN(CC1COc2ccccc2O1)C(=O)c1cccc(N(C)C)c1 (stereo not drawn)	-11.0	.
CSc1scc2c1-c1nn(C(C)=O)cc1CC2	.	-0.1
C=CC(=O)Nc1sc2c(c1C(=O)OCC)CCCC2	18.0	-1.4
O=C(OCC(=O)N1CCCc2ccccc21)c1cc(S(=O)(=O)N2CCOCC2)ccc1O	15.0	.
Oc1cccc(C(c2ccc3cccnc3c2O)N2CCCC2)c1 (stereo not drawn)	-12.0	.
NC(=O)c1ccc(NC(=O)COC(=O)CCN2C(=O)c3ccccc3C2=O)cc1	4.0	.
COC(=O)CN1C(=O)Nc2ccc(C)cc2C1c1ccccc1 (stereo not drawn)	17.0	.
Next records follow.
SMILES	Sa helicase inh	MgrA DNA FP
O=C(Nc1ccc2nsnc2c1)c1ccccc1N1CCOCC1	.	-1.4
CN(C(=O)COc1ccccc1)C1(C)CCS(=O)(=O)C1 (stereo not drawn)	-17.0	.
CCOC(=O)N1CCN(C(=O)CCS(=O)(=O)c2ccc(Br)s2)CC1	7.0	-0.3
COc1ccc(NC(=O)CNC(N)=O)cc1NS(=O)(=O)c1ccc(F)cc1	-25.0	.
CCN(CC)S(=O)(=O)c1ccc2oc(Nc3ccccc3)nc2c1	18.0	.
Cc1ccc2nc(NC(=O)C(C)(C)C)sc2c1	-4.0	.
COCCN1C(=O)c2ccccc2C(C(=O)NCc2ccccc2OC)C1c1ccc(F)cc1 (stereo not drawn)	9.0	1.1
O=S(=O)(NCC1COC2(CCCCC2)O1)c1ccc(Cl)s1 (stereo not drawn)	1.0	.
COc1ccc(-c2cc(-c3ccccc3)[nH]c(=S)c2C#N)cc1	-14.0	1.6
Cc1cc(=O)[nH]c(SCC(=O)Nc2ccccc2C#N)c1C#N	-4.0	.
OC(c1n[nH]c(=S)n1-c1ccccc1)C(O)c1n[nH]c(=S)n1-c1ccccc1 (stereo not drawn)	15.0	-1.4
CC(=O)Oc1ccc(C2OC(=O)c3ccccc3N2C(C)=O)cc1 (stereo not drawn)	6.0	-2.3
COc1ccc(OC)c(NC(=O)/C=C/c2ccc(S(=O)(=O)N3CCOCC3)cc2)c1	-9.0	.
O=C(OC1CCCC1)c1cccnc1Cl	-24.0	2.0
CC1CC(C)CN(C(=O)CCc2ccccc2)C1 (stereo not drawn)	-20.0	1.2
O=C(c1cnn(C(=S)NCCN2CCOCC2)c1)c1ccccc1O	-4.0	.
CC(C)(C)CC(C)(C)NC(=O)Nc1ccc(F)cc1	20.0	0.8
O=C(Oc1ccc2ccccc2c1)C1c2ccccc2Oc2ccccc21	.	2.4
CCOC(=O)C1=C(N2CCOCC2)CC(c2ccccc2)(C(F)(F)F)NC1=O (stereo not drawn)	34.0	.
COC(=O)c1csc(C(=O)OC)c1C	-1.0	0.9
COC(=O)C1=C(C)N(c2ccc(F)cc2)/C(=C/c2ccco2)C1=O	2.0	2.8
COc1ccc(NC(=O)c2nn(C)c3c2COc2ccccc2-3)cc1	0.0	1.2
CN(CC1COc2ccccc2O1)C(=O)/C=C/c1ccc(S(=O)(=O)NCc2ccco2)cc1 (stereo not drawn)	13.0	.
CSc1ccccc1NC(=O)CSc1nc2ccc(C)cc2[nH]1	8.0	1.9
c1ccc(CSc2ccc(-c3cccs3)nn2)cc1	2.0	0.9

Ordered by molar mass (high to low): some entries from above.
SMILES	Sa helicase inh	MgrA DNA FP
CCOC(=O)C1=C(N2CCOCC2)CC(c2ccccc2)(C(F)(F)F)NC1=O (stereo not drawn)	34.0	.
Cc1ccccc1Oc1ccc(S(=O)(=O)N2CC(C)OC(C)C2)cc1 (stereo not drawn)	11.0	.
O=C(Nc1ccc2nsnc2c1)c1ccccc1N1CCOCC1	.	-1.4
CCn1c(=O)c2ccccc2n(CC(=O)c2ccc(C)cc2)c1=O	15.0	-1.2
Cc1csc(SC(C)C(=O)N2CCCc3ccccc32)n1 (stereo not drawn)	-6.0	.
c1ccc(-c2nnc(-c3csc(-c4cccnc4)n3)o2)cc1	.	-3.8
COC(=O)c1csc(C(=O)OC)c1C	-1.0	0.9

(further entries)
SMILES	Sa helicase inh	MgrA DNA FP
O=c1cc(CN2CCc3ccccc3C2)occ1OCc1ccc(F)cc1	15.0	.
Cn1[nH]c(C(F)(F)F)cc1=O	.	-1.9
CCOC(=O)CC(N)=S	0.0	.
COc1ccc(OCCSc2nc3ccccc3o2)cc1	12.0	4.8
COc1cc(OC)c(C(=O)N2CCCC2)cc1OC	9.0	-1.1
O=C(NC1CC(O)c2cc3c(cc21)OCO3)C(F)(F)F (stereo not drawn)	.	-1.6
O=S(=O)(Nc1[nH]ncc1Br)c1ccc(Cl)s1	.	3.5
COc1ccc(OCC(O)CNS(=O)(=O)c2ccc(NC(C)=O)cc2)cc1 (stereo not drawn)	20.0	.
COC(=O)/C=C1\SC(=Nc2cccc(SC)c2)N(c2cccc(SC)c2)C1=O	.	-0.7
CCCCNC(=O)c1ccc2c(=O)n(Cc3ccco3)c(=S)[nH]c2c1	6.0	.
CN(CC(=O)Nc1ccc(Cl)c(Cl)c1)CC(=O)N1CCNC1=O	18.0	.
Cc1cc(=O)oc2c1c(-c1ccccc1)nn2-c1ccc(C(=O)O)cc1	5.0	.
O=C(Oc1ccc2cc(-c3nc4ccccc4s3)c(=O)oc2c1)c1ccco1	-99.0	8.9
CCOc1cc(C=C2C(=O)N(C)C(=O)N(C)C2=O)ccc1OCCOc1ccccc1OC	.	2.1
COc1cc2nc(CNCCCN3CCCC3=O)[nH]c(=O)c2cc1OC	2.0	.
C[C@@H](N)C(=O)OCc1ccccc1	.	0.4
COc1ccc(N2CC(C(=O)Nc3ccccc3)CC2=O)cc1 (stereo not drawn)	-8.0	-1.9
O=C(Nc1nc(-c2ccccc2)cs1)c1ccc(S(=O)(=O)N2CCCCC2)cc1	4.0	2.8
Cc1ccccc1NCN1C(=O)C2=C(CCCC2)C1=O	5.0	.
O=C(COc1ccccc1)Nc1ccc(C(O)(C(F)(F)F)C(F)(F)F)cc1	-20.0	0.4
COc1ccc(C(=O)Nc2ccc(NC(=O)c3ccco3)c(Cl)c2)cc1Br	11.0	.
O=C(O)C1C2C=CC(C2)C1C(=O)Nc1ccccc1O (stereo not drawn)	0.0	1.8
O=C(c1c(Cl)cccc1Cl)n1nnc2ccccc21	-17.0	.
O=C(Nc1nnc(-c2ccc(Cl)cc2Cl)s1)c1ccc(S(=O)(=O)N2CCOCC2)cc1	.	-1.8
O=C(OCC(=O)N1CCCCC1)C(c1ccccc1)c1ccccc1	-19.0	-1.7

Shown comma-delimited: part of the list above.
structure,Sa helicase inh,MgrA DNA FP
CCOC(=O)C1=C(N2CCOCC2)CC(c2ccccc2)(C(F)(F)F)NC1=O (stereo not drawn),34.0,.
CN(CC(=O)Nc1ccc(Cl)c(Cl)c1)CC(=O)N1CCNC1=O,18.0,.
CC1CC(C)CN(C(=O)CCc2ccccc2)C1 (stereo not drawn),-20.0,1.2
O=C(c1c(Cl)cccc1Cl)n1nnc2ccccc21,-17.0,.

More structures follow:
SMILES	Sa helicase inh	MgrA DNA FP
CC1CCCC(NC(=O)CCCn2c3ccccc3c3cn[nH]c(=O)c32)C1C (stereo not drawn)	13.0	-2.4
Cc1cc(Nc2ccc(C)c(F)c2)c2ccccc2n1	.	-0.9
CC(C)C(NC(=O)c1ccccc1)C(=O)O (stereo not drawn)	17.0	-5.2
Cc1cc(=O)[nH]c(SCC(=O)N2CCCc3ccccc32)n1	3.0	.
Cc1ccc(S(=O)(=O)c2ccc(Cl)cc2)cc1S(=O)(=O)N1CCCC1	6.0	3.3
CCOC(=O)c1c(OCC)[nH]c2ccc(O)cc12	-3.0	2.5
CCC(=O)N1CCc2cc(S(=O)(=O)N(C)CCC#N)ccc21	13.0	.
COc1cc2c(cc1OC)C(c1ccccc1)N(C(=O)S(C)(=O)=O)CC2 (stereo not drawn)	10.0	0.8
Cc1ccc2c(c1)c1nnc(SCC(=O)N3CCCCC3C)nc1n2C (stereo not drawn)	10.0	2.0
CCN(CC)C(=O)C1CCCN1S(=O)(=O)c1cccc2nsnc12 (stereo not drawn)	12.0	.
CCOc1ccc(CN(C)CC(=O)NC2CC2)cc1OC	-11.0	.
O=C(c1cn(Cc2ccccc2Cl)nc1-c1ccccc1)N1CCN(C2CCS(=O)(=O)C2)CC1 (stereo not drawn)	-3.0	.
Cc1ccc(NC(=O)c2nc[nH]c2C(=O)N2CCCCC2)c(C(=O)c2ccccc2)c1	3.0&-10.0	-1.4&1.4
O=S(=O)(c1cccc(C(F)(F)F)c1)N1CCN(c2ncccn2)CC1	-12.0	.
CS(=O)(=O)N(Cc1ccccc1)c1ccc(C(=O)NCCSc2ccccn2)cc1	8.0	3.5
Cn1c2c(c3cc(C4CCCCC4)ccc31)CCCCC2=O	-2.0	3.5
O=C(CC1OC(=O)c2ccccc21)c1ccccn1 (stereo not drawn)	.	-1.6
O=C(Cn1nc(-c2ccco2)ccc1=O)Nc1cccc2ccccc12	-12.0	.
CSc1nc2c(cnn2-c2ccc(C)cc2)c(=O)[nH]1	-15.0	.
N#C/C(C(=O)N1CCCC1)=c1/s/c(=C\c2ccc(-c3ccc(S(N)(=O)=O)cc3)o2)c(=O)n1-c1ccccc1	i	.
COc1ccccc1NC(=O)CSC1=NC(=O)C(Cc2ccccc2)C(=O)N1 (stereo not drawn)	2.0	.
Oc1cccc(CC(F)(F)F)c1	-21.0	-3.1
NC1=CC(=O)CCC1	-10.0	.
Cn1c(C(C#N)C(=O)c2cncc(Br)c2)nc2ccccc21 (stereo not drawn)	-1.0	0.8
COC(=O)c1sccc1Oc1ccc(C(F)(F)F)cc1NC(=O)c1ccccc1OC	.	0.4
(cont.)
SMILES	Sa helicase inh	MgrA DNA FP
Cc1cc(=O)oc2cc(NC(=O)c3cccc(S(=O)(=O)N4CCCC4)c3)ccc12	19.0	.
CC1=N/C(=C/c2ccc(C)cc2)C(=O)O1	.	-2.9
CCS(=O)(=O)c1ccc(I)s1	14.0	-1.8
O=C(/C=C/c1ccc2c(c1)OCO2)OCC(=O)N1CCOCC1	-3.0	.
NC(=S)NN=C1C2CC3CC(C2)CC1C3	-4.0	.
COc1cccc(NC(=O)CSc2c3c(nc4ccccc24)CCC3)c1	15.0	.
CS(=O)(=O)N1CCN(CCCc2ccccc2)CC1	2.0	.
Cc1ccc(NC(=O)c2cc(C(C)C)on2)cc1	-10.0	.
CCOC(=O)c1cc(S(=O)(=O)N2CCN(C(=O)OCC)CC2)cn1C	13.0	.
CN(C1CCCCC1)S(=O)(=O)c1ccccc1NC(=O)COc1ccccc1C#N	1.0	.
CCOc1ccc(-c2nc3ncccn3c2NCc2ccccc2OC)cc1OC	6.0	.
Cc1n[nH]c(=O)c2c1nnn2Cc1ccc(F)cc1	8.0	.
Oc1ccc(O)c(Sc2nnnn2-c2ccccc2)c1	-25.0	.
Cc1ccc(C)c(NC(=O)CN(C)C(=O)COc2ccccc2C#N)c1	-11.0	.
O=C(CN1CCCC1c1ccc2c(c1)OCCCO2)Nc1ccc(S(=O)(=O)N2CCCCC2)cc1 (stereo not drawn)	9.0	.
Cc1n[nH]c(=S)n(/N=C/c2cccs2)c1=O	-3.0	6.3
O=C(NCCC1=CCCCC1)c1ccc2c(c1)OCO2	9.0	-0.6
CCC(C)N1CCN(C(=O)C(c2ccccc2)c2ccccc2)CC1 (stereo not drawn)	-1.0	-0.2
Cc1nn(-c2nc(-c3ccco3)cc(C(F)(F)F)n2)c(C)c1Br	-32.0	.
O=C(CSc1nc2ccccc2[nH]1)CSc1nc2ccccc2[nH]1	-2.0	.
CCOC(=O)c1ccc(NC(=O)C2=CC(=O)N3CCN=C3S2)cc1	0.0	13.6
Cc1cccc(CN2CCC(CNC(=O)COc3cc(=O)n(C)c4ccccc34)CC2)c1	24.0	.
CC(=O)Nc1ccc(NC(=O)CC(NC(C)=O)c2ccccc2)cc1 (stereo not drawn)	1.0	.
COc1ccc(/C=N/N2C(=O)C3C4C=CC(C4)C3C2=O)cc1Br (stereo not drawn)	2.0	1.1
Cc1cc(Cl)ccc1OCC(=O)Nc1sc2c(c1C#N)CCC2	-3.0	1.6
